Measles inh – inhibitors of measles virus growth in infected cells; infected Vero cells, GFP fluorescence, 64 h; hits give low values; z-score (concentration not given with the values); hit rate 0.1% among 33,000; AID 745;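 active = z-score under -3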;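 also: score is relative to mean and SD of the compound wells of a plate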
Starred values were filed as active, the others as inactive.

SMILES	Measles inh
O=C(CCn1c(SCc2ccccc2Cl)nc2cc3c(cc2c1=O)OCO3)N1CCN(c2ccccc2)CC1	-0.52
O=C(Nc1ccc(I)cc1)c1ccc(Br)c(S(=O)(=O)N2CCCCC2)c1	-0.36
CCOc1ccccc1C1C(C(N)=O)=C(C)Nc2ncnn21 (centres undefined)	-0.44
COc1ccc(N2C(=O)C3C4C=CC(CO)(O4)C3C2=O)c([N+](=O)[O-])c1 (centres undefined)	-0.06
CC(C)(C)NC(=O)c1ccccc1	0.04
O=C1CC(NC2CCCC2)C(=O)N1c1ccc(Br)cc1 (centres undefined)	-0.54
Cc1cc(Cl)ccc1OCC(O)CN1CCCCC1C (centres undefined)	0.58
COc1ccc(NC(=O)c2oc3ccc(S(=O)(=O)N4CCCCC4)cc3c2C)cc1	0.06
CC(=O)c1c(C)oc2ccc(N(C(=O)c3ccccc3Cl)S(=O)(=O)c3ccc(Cl)cc3)cc12	-0.2
Cc1ccc(-c2nc(C(Cl)Cl)c3cc(C)ccc3n2)cc1	0.09
COc1c(C(=O)Nc2nccs2)ccc2ccccc12	0.28
O=C(c1ccc(Br)o1)N1CCN(CC=Cc2ccccc2)CC1	-0.31
CCN(CC)C(=O)CN(c1cccc(C)c1C)S(C)(=O)=O	0.89
Cc1ccc2cc3cc(C(=O)N4CCN(C(=O)c5ccco5)CC4)oc3nc2c1	-0.09
CCOc1ccccc1-n1c(N)c(C(=O)Nc2ccccc2C)sc1=S	1.5
CCOc1ccc(NC(=O)c2ccc([N+](=O)[O-])o2)cc1	-1.1
CCC(=O)N1c2ccc(S(=O)(=O)N(C)c3ccc(Br)cc3)cc2CC1C (centres undefined)	0.05
O=C(O)c1ccc(N2C(=O)CC(N3CCOCC3)C2=O)cc1 (centres undefined)	-0.31
Cc1ccc2nc3c(c(C(=O)O)c2c1)CCCC3	-0.66
COc1ccc(C2Oc3ccccc3C3CC(c4ccc(C)o4)=NN32)cc1 (centres undefined)	0.53
Cc1ccc(-n2c(=O)c3sccc3n(Cc3cccc([N+](=O)[O-])c3)c2=O)cc1F	-0.6
CCOc1ccc(C(=O)Nc2nc(-c3ccccc3)cs2)cc1Cl	0.23
CCc1ccc(N2CN(Cc3ccccc3)CNC2=S)cc1	-0.56
Cc1ccc(C(=O)O)c(C(=O)Nc2cccnc2)c1	-0.4
CC(c1ccccc1)N1C(=O)c2ccccc2C1(O)Cc1ccccc1 (centres undefined)	1.3
COC(=O)COc1ccc(S(=O)(=O)Nc2ccc3c(c2)OCCO3)cc1	-0.22
COC(=O)C1=C(N)OC2=C(C(=O)CCC2)C1c1cc(OC)ccc1OC (centres undefined)	0.88
COc1cccc2cc(-c3csc(NCc4ccc(F)cc4)n3)c(=O)oc12	-0.42
COc1ccc(S(=O)(=O)Nc2c(C)cc(O)cc2C)cc1	-1.2
Cc1cc(OCC(=O)Nc2ccccc2C)ccc1Br	-0.12
O=C1C=C(c2cccs2)CC(c2cccs2)C1n1cnc([N+](=O)[O-])n1 (centres undefined)	-0.51
O=[N+]([O-])c1ccc(Sc2nc3ccccc3s2)cc1	-0.37
O=C(CCN1CCOCC1)Nc1ccc(Cl)cc1	0.07
COc1ccc2nc(NC(=O)c3ccc(S(=O)(=O)N4CCOCC4)cc3)sc2c1	2.3
CC(C)C(=O)N1c2ccccc2C(N(C(=O)c2ccc(F)cc2)c2ccccc2)CC1C (centres undefined)	-0.4
CCOc1ccc2cc(C3CC(c4ccc(OC)cc4)=NN3)c(Cl)nc2c1 (centres undefined)	-0.84
CC(=O)C1=C(O)C(=O)N(CCC(=O)O)C1c1ccccc1Cl (centres undefined)	0.32
O=C1CC(NCCc2ccc(Cl)cc2)C(=O)N1c1ccc(Br)cc1 (centres undefined)	-0.39
CCc1ccc2nc(Nc3nc4ccccc4c(=O)[nH]3)nc(C)c2c1	-1
COCCCn1c(SCc2ccccc2C#N)nc2c(sc3ccccc32)c1=O	-0.03
Cc1ccc(C)c(CN2C(=O)CSc3ccc(C(=O)NCCCN4CCOCC4)cc32)c1	-1.7
CCCCCNC(=O)c1cc(S(=O)(=O)N2CCCCC2)ccc1F	1.7
COc1ccccc1NC(=O)c1cc2ccccc2c(C=Nc2ccc(Cl)cc2)c1O	0.31
COc1ccc(S(=O)(=O)N(CC(=O)Nc2cccc(OC)c2)c2ccc(C)cc2)cc1	2.7
O=C(Cc1ccccc1)N1CCN=C1SCc1ccc(C(F)(F)F)cc1	-0.19
Cc1ccc(NC(=O)CCS(=O)(=O)c2cccc3nonc23)cc1F	2
CCOc1cc(C2C(C(=O)OCc3ccccc3)=C(C)NC3=C2C(=O)CCC3)cc(Br)c1O (centres undefined)	0.08
C=CCN(CC=C)C(=O)COc1ccc(Cl)cc1	0.73
CC(C)(C)C(=O)Nc1ccc(C(C)(C)C)cc1[N+](=O)[O-]	-1.3
O=C(CN1N=C(c2ccc(Cl)cc2)CCC1=O)NCCN1CCc2ccccc2C1	0.2

Following part.
SMILES	Measles inh
COc1cc2c(cc1OC)C(C(=O)Nc1ccc(Oc3ccccc3)cc1)C(c1cccnc1)N(C)C2=O (centres undefined)	0.41
CC1=C(C(=O)OC(C)C)C(c2ccc(O)cc2)C2=C(CCCC2=O)N1 (centres undefined)	0.25
Cc1cc(C)c2nc(/N=C(/N)NC(=O)c3ccccc3)nc(C)c2c1	-0.37
CN1CCN(C(=O)CC(C(=O)N2CCc3ccccc32)n2ccnc2)CC1 (centres undefined)	-0.16
O=C1C2C3c4ccccc4C([N+](=O)[O-])(c4ccccc43)C2C(=O)N1c1ccc(O)cc1 (centres undefined)	-0.21
O=C(Nc1ccccc1C(=O)NC1CCCCC1)c1cccc(S(=O)(=O)N2CCOCC2)c1	-0.7
O=C(O)CCCN1C(=O)c2ccc([N+](=O)[O-])cc2C1=O	-0.83
COC(=O)c1ccccc1NC(=O)C1c2cc(OC)c(OC)cc2C(=O)N(C)C1c1cccnc1 (centres undefined)	-1.5
CCn1c(=N)c(C(=O)NCCc2ccccc2)cc2c(=O)n3ccccc3nc21	0.69
CCN1CCN(C(=O)CSc2cc(=O)n(C)c3ccccc23)CC1	-1.6
O=C1c2ccccc2C(=O)N1c1ccc(Cl)c([N+](=O)[O-])c1	0.22
O=C1c2ccccc2C(=O)c2c(NCc3cccnc3)cccc21	-1.1
CC(=O)N1N=C(c2ccc(C)cc2)CC1c1cn(-c2ccccc2)nc1-c1ccc(C)cc1 (centres undefined)	-0.83
Cc1ccc(C(=O)CSc2nc(C)cc(C)c2C(N)=O)cc1	-2
Cc1ccc2c(c1)C1=C(C(c3ccccc3F)O2)C(c2ccccc2)n2ncnc2N1 (centres undefined)	-0.37
COc1ccc2oc(=Nc3ccc(C)cc3)c(C(=O)NC(C)=O)cc2c1	-0.07
CCC(=O)Nc1cc2nn(-c3ccc(OC)cc3)nc2cc1C	1.8
O=C(C(Sc1ccccc1)c1ccccc1)N1CCCCCC1 (centres undefined)	-0.91
CCC(=O)N1CCc2cc(S(=O)(=O)CCC(=O)Nc3ccc(Br)c(C)c3)ccc21	-0.7
COc1ccccc1CNC(=O)c1cc(=O)[nH]c2ccc(S(=O)(=O)N3CCCC(C)C3)cc12 (centres undefined)	-0.34

In the list so far, two have an NH in an aromatic ring.
SMILES	Measles inh
CCc1ccc2nc(Nc3nc4ccccc4c(=O)[nH]3)nc(C)c2c1	-1
COc1ccccc1CNC(=O)c1cc(=O)[nH]c2ccc(S(=O)(=O)N3CCCC(C)C3)cc12 (centres undefined)	-0.34

(continued)
SMILES	Measles inh
CCCc1ccc(-c2ccc(C(=O)Nc3ccc(C)cc3C)cc2)nc1	1.3
Clc1cccc(C2CC(c3ccc(I)cc3)Nc3ncnn32)c1 (centres undefined)	-0.29
Cc1ccc2nc(-c3cccc(N=Cc4cccc([N+](=O)[O-])c4O)c3)oc2c1	-0.13
COCC(=O)Oc1c(Sc2ccc(C)cc2)c(C)nn1C(C)(C)C	1.6
COc1ccccc1C1NC(=O)C(=O)/C1=C(/O)c1ccc(Br)cc1 (centres undefined)	0.19
CC1(C)Cc2c(ccc3ccccc23)CN1C(=O)c1ccccc1	-1.4
Fc1ccc(-c2csc3ncnc(NCCN4CCOCC4)c23)cc1	-0.34
COc1ccc(C2CC(=O)C3=C(C2)NC(C)=C(C(=O)OCC(C)C)C3c2ccc(N(C)C)cc2)cc1 (centres undefined)	-0.12
COCCNC(=O)c1cc2cc3ccc(Cl)cc3nc2o1	0.08
COC(=O)C1C(=O)C2=C(CC1C)NC(C)=C(C(=O)OCCOc1ccccc1)C2c1ccccc1C (centres undefined)	1
Cc1ccc2c(c1)N(CCC(=O)NCCCOC(C)C)C(=O)CO2	-0.6
CCOC(=O)c1ccc(N2C(=O)c3ccccc3C2=O)cc1	0.7
C=CCn1c(=N)c(C(=O)NCc2ccccc2)cc2c(=O)n3ccccc3nc21	0.59
O=C(NCc1ccc2c(c1)OCO2)c1ccc(Cn2c(=S)[nH]c3cc4c(cc3c2=O)OCO4)cc1	-1
O=C(NCC1CCCO1)c1cc(=O)[nH]c2ccc(S(=O)(=O)N3CCCC3)cc12 (centres undefined)	0.74
COc1ccc(NC(=O)c2cc3cc(OC)ccc3oc2=N)cc1	0.58
COC(=O)c1nnn(CC(=O)Nc2cccc(OC)c2)c1C(=O)OC	-1.8
Cc1ccc(-c2csc3ncn(Cc4cccc(Br)c4)c(=O)c23)cc1	0.41
O=C(O)c1[nH]c2ccc(Cl)cc2c1CC(=O)N1CCN(C(=O)c2ccco2)CC1	0.56
O=[N+]([O-])c1ccccc1C=CC=Nc1ccc2oc(-c3ccc(Br)cc3)nc2c1	-0.22
O=C(Oc1ccc(-c2cnc3ccccc3n2)cc1)c1ccc(Br)cc1	-0.62
COc1ccc(Cc2c(Cl)ncnc2Cl)cc1	-0.43
O=C(C1CCC1)N1CCc2cc(S(=O)(=O)NCc3ccccc3Cl)ccc21	0.73
c1ccc(CN2CCC(NCCc3c[nH]c4ccccc34)CC2)cc1	-1
CCN1CCCC1CNC(=O)Cn1cnc2sc(C)c(S(=O)(=O)N3CC(C)CC(C)C3)c2c1=O (centres undefined)	0.2
Cc1ccc(Cl)cc1NC(=O)c1cc2c(=O)n3cccc(C)c3nc2s1	-0.33
CC(=O)N1c2ccccc2NC2=C(C(=O)CC(c3cccc(Br)c3)C2)C1c1ccc(C)cc1 (centres undefined)	-0.68
CC1CCCN(C(=O)c2cc3c(=O)n4ccccc4nc3s2)C1 (centres undefined)	0.96
Cc1ccccc1NC(=O)c1cncc(Br)c1	-0.55
Cc1ccc(S(=O)(=O)C2(C(=O)Nc3ccccc3C)CC2)cc1	-0.08
Cn1c(=O)c2c(ncn2CC=Cc2ccccc2)n(C)c1=O	0.1
COc1ccc(N2CCN(CCNS(=O)(=O)c3cc(Br)cc4c3N(C(C)=O)CC4)CC2)cc1	-0.39
CCCCN(C)C(=O)c1cc2c(=O)oc3ccccc3c2s1	0.92
COc1ccc(S(=O)(=O)NCC2CCC(C(=O)NC3CCCCCC3)CC2)cc1 (centres undefined)	-0.72
CCOC(=O)Cn1c(=O)n(CC2CCCO2)c(=O)c2ccccc21 (centres undefined)	0.75
CCSc1nnc(NC(=O)c2ccccc2Br)s1	-0.45
CCOc1ccc(/C(O)=C2\C(=O)C(=O)N(c3ccccn3)C2c2ccc(C)cc2)c(C)c1 (centres undefined)	-0.3
O=C(CSc1nc2ccccc2s1)Nc1ccc(S(=O)(=O)Nc2nccs2)cc1	0.37
CCCCCn1c(CN2CCOCC2)nc2c1c(=O)n(C)c(=O)n2C	0.5
COc1ccc(N2CCN(C(=O)C(NS(=O)(=O)c3cccs3)C(C)C)CC2)cc1 (centres undefined)	-0.42

Sorted by SMILES length (smallest number first): 15 of the compounds above
SMILES	Measles inh
Cc1ccccc1NC(=O)c1cncc(Br)c1	-0.55
CCSc1nnc(NC(=O)c2ccccc2Br)s1	-0.45
CCCCN(C)C(=O)c1cc2c(=O)oc3ccccc3c2s1	0.92
Cn1c(=O)c2c(ncn2CC=Cc2ccccc2)n(C)c1=O	0.1
CC1CCCN(C(=O)c2cc3c(=O)n4ccccc4nc3s2)C1 (centres undefined)	0.96
c1ccc(CN2CCC(NCCc3c[nH]c4ccccc34)CC2)cc1	-1
CCCCCn1c(CN2CCOCC2)nc2c1c(=O)n(C)c(=O)n2C	0.5
Cc1ccc(S(=O)(=O)C2(C(=O)Nc3ccccc3C)CC2)cc1	-0.08
O=C(Oc1ccc(-c2cnc3ccccc3n2)cc1)c1ccc(Br)cc1	-0.62
Cc1ccc(Cl)cc1NC(=O)c1cc2c(=O)n3cccc(C)c3nc2s1	-0.33
O=C(C1CCC1)N1CCc2cc(S(=O)(=O)NCc3ccccc3Cl)ccc21	0.73
COc1ccc(S(=O)(=O)NCC2CCC(C(=O)NC3CCCCCC3)CC2)cc1 (centres undefined)	-0.72
COc1ccc(N2CCN(C(=O)C(NS(=O)(=O)c3cccs3)C(C)C)CC2)cc1 (centres undefined)	-0.42
CCOc1ccc(/C(O)=C2\C(=O)C(=O)N(c3ccccn3)C2c2ccc(C)cc2)c(C)c1 (centres undefined)	-0.3
CCN1CCCC1CNC(=O)Cn1cnc2sc(C)c(S(=O)(=O)N3CC(C)CC(C)C3)c2c1=O (centres undefined)	0.2

Further entries
SMILES	Measles inh
O=C(CSc1nc2ccsc2c(=O)n1Cc1ccccc1F)NC1CCCC1	-0.52
Cc1c(NC(=O)c2ccc(Br)o2)cccc1-c1nc2ccccc2o1	-0.23
CC(=O)N1CCc2cc(Br)cc(S(=O)(=O)NCC3CCCO3)c21 (centres undefined)	0.08
COCCNS(=O)(=O)c1cc(Br)cc2c1N(C(=O)C1CC1)CC2	-0.87
Cc1ccc(C(=O)COC(=O)c2cccc(N3C(=O)c4ccccc4C3=O)c2)cc1[N+](=O)[O-]	0.23
COc1ccc(-c2cc(=O)[nH]c(SCC(=O)Nc3ccc(Cl)cc3C)n2)cc1	-2
Clc1ccccc1N=c1oc2ccccc2cc1-c1nc2ccccc2[nH]1	-0.36
CCn1c(C(O)c2cc(OC)c(OC)c(OC)c2)nc2ccccc21 (centres undefined)	0.03
CCCCn1c(SCc2ccccc2C)nc2ccsc2c1=O	1.4
Cc1noc(NS(=O)(=O)c2ccc(NC(=O)c3ccncc3)cc2)c1C	1.6
COc1ccccc1Nc1ncnc2[nH]ncc12	-1.1
Cc1ccc2cc3cc(C(=O)N4CCC(C)CC4)oc3nc2c1	-1.1
O=C1c2ccccc2C(=O)c2cc(S(=O)(=O)Nc3ccccc3F)ccc21	2
Cc1cccc(NC(=O)CSc2nnc3scc(-c4ccccc4)n23)c1	-1.2
COc1ccc(-n2c(C=Cc3cccc4ccccc34)nc3ccccc3c2=O)cc1	0.21

Assay outcomes from PubChem BioAssay.

These rows are one share of the data. The share of hits here may be higher or lower than overall.
